# Screening results deposited in PubChem by several laboratories.
# MT1-MMP act inh: MT1-MMP (human) activation inhibition | P50281 | HT1080 RFP-PRO-GFP cells, GFP/RFP ratio fluorescence, overnight; percent of plate control window, DMSO zero | GFP/RFP ratio change, % at 20 µM | hit rate 0.061% among 360,000;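 active = GFP/RFP ratio change of at least 30% with cell ATP level not reduced by more than half and red fluorescence within 50% of control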; note: strong numbers were not always called active
#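 Read-out: GFP/RFP fluorescence ratio; Test system: RFP-PRO-GFP reporter HT1080 cells; Compound dosing: single-point 20 µM compound, 1% DMSO; Times: overnight compound exposure at 37 °C.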
# Env fusion inh: HIV envelope-mediated fusion inhibition; hit rate 1.1% among 360,000; HeLa-JRFL Env/CEM21 cell fusion, luciferase; AID 651610; inhibition, % at 12.3 µM;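 active = mean replicate inhibition score of at least 50 and every replicate individually at or above 50; inconclusive = only one of the two criteria met; inactive = mean below 50 and not all replicates reaching 50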;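 note: 0% = plate neutral controls and 100% = maraviroc near 300 nM; one replicate is shown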
# PABP FP inh: PABP-poly(A) binding inhibition | PABP-poly(A) RNA binding, fluorescence polarization | inhibition, % at 35 µM | hit rate 1% among 290,000 | AID 2014;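 active = 50% or more with normal probe brightness, or confirmed in later tests; inconclusive = above 50% with abnormal brightness, or retests that disagree; inactive = below 50% or failed in later tests; about a fifth of its hits are not listed in these tables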;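 note: calls also rest on retests at 20 µM and on dose response follow-up; controls were probe without protein and protein plus probe with vehicle; some compounds called inactive have numbers as strong as hits; many hits fall short of the cut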
# CSC inhib: blocks cancer stem cells | cancer stem cell-like cells viability, luminescence | AID 2717 | inhibition, % at 7.5 µM | hit rate 1.1% among 300,000;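 active = mean at 75% or more and at least half the replicates too; inconclusive = mean and replicates disagree; tested in HMLE shEcad cells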;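 note: 0% = median of negative and 100% = median of positive control wells; the first replicate is given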
# Rce1 inh: blocks yeast Ras-converting enzyme; AID 2563; calls only; yeast membranes, quenched prenylated peptide cleavage fluorescence; hit rate 0.27% among 290,000; Q03530;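 active = fall in fluorescence gain of 50% or more versus controls, with final raw signal at or below 3038400; inconclusive = same 50% fall but final raw signal above 3038400; inactive = fall in fluorescence gain under 50%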;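 note: plate controls were neutral control wells for no effect and wells lacking membranes for full effect; tested at 10 µM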
# Target sequence (Q03530 whole entry, looked up): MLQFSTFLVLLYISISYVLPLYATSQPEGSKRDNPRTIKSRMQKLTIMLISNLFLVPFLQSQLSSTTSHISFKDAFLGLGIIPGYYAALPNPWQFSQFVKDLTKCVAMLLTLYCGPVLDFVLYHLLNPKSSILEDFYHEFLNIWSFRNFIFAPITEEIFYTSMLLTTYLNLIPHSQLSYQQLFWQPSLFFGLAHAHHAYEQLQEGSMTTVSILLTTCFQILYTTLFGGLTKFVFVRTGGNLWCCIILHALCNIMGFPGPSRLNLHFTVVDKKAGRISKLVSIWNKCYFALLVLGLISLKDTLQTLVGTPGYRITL
# Yeast UUG start: alters start codon recognition fidelity in yeast; S. cerevisiae UUG-firefly luciferase reporter, luminescence/redox ratio; activity score, % at 18.7 µM; hit rate 0.13% among 350,000;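 active = replicate mean at a twofold rise or more, about +100% in these data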;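 note: firefly luciferase made from a UUG start codon reports start codon fidelity; reporter light over untreated wells divided by growth signal over untreated wells; some hits fall short of that in this replicate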
# eIF4H FP inh: inhibitors of RNA binding by human eIF4H. Q15056. eIF4H fluorescence polarization binding assay. inhibition, % at 35 µM. hit rate 0.94% among 290,000. AID 2012;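 active = 50% or more with normal probe brightness, or confirmed in later tests; inconclusive = above 50% with abnormal brightness, or retests that disagree; inactive = below 50% or failed in later tests; about a fifth of its hits are not listed in these tables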;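 note: calls also rest on retests at 20 µM and on dose response follow-up; 0% = protein and probe with vehicle and 100% = probe without protein; strong numbers were not always called active; many hits fall short of the cut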
# eIF4H FP inh retest: further read-out of eIF4H FP inh, marked with its call; inhibition, %; compound at 20 µM; confirmation average;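 mean of two retest wells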
# PABP FP inh retest: recorded beside PABP FP inh, whose call it bears; inhibition, %; compound at 20 µM; confirmation repeats;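 mean of two retest wells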
# MT1-MMP act inh RFP: also measured in MT1-MMP act inh; calls as there; RFP signal change, %; measured here: RFP expression control read;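 0 = vehicle wells; hits needed this value within 50% of zero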
# Starred values were filed as active, the others as inactive; i = inactive; ? = inconclusive; / = no result given; & = joins results of further samples.
SMILES,MT1-MMP act inh,MT1-MMP act inh RFP,Env fusion inh,PABP FP inh,CSC inhib,Rce1 inh,Yeast UUG start,eIF4H FP inh,others
O=C(COc1coc(CN2CCN(c3ccc(F)cc3)CC2)cc1=O)NC1CCCC1,6,-6,/,/,-13,i,16,/,
CC(=O)NCCC1CCN(c2nc3nonc3nc2N(C)Cc2ccccc2)CC1,-4,4,5,-9,-11,i,/,-1,
C/C(=N\Nc1ccc2nncn2n1)c1ccc(Cl)s1,2,-3,-14,-2,-10,i,-11,-4,
COc1ccc(C2CC(=O)Oc3ccc(C(C)(C)C)cc32)cc1 (stereo unspecified),-2,3,1,11,/,i,-13&-8,-3,
CCOc1nc(-c2ccc(Cl)cc2)nc2ccccc12,-6,7,9,-8,10,i,/,0,
CSc1cccc(NC(=O)C(C)Sc2ccc(C)cc2)c1 (stereo unspecified),14,4,-10,-8,7,i,-18,-2,
COc1cccc(OCC(O)CN2CCN(C)CC2)c1 (stereo unspecified),0,-2,-3,-8,-8,i,-4,4,
COc1ccc(S(=O)(=O)Nc2c3ccccc3nc(=O)n2-c2ccccc2)cc1,0,-4,/,3,/,i,-2,-15,
COc1ccc(NC(=O)CSc2n[nH]c(-c3ccncc3)n2)cc1Cl,-3,-2,9,/,-2,/,-21,/,
COc1ccc2c(c1)c(=O)c(C(=O)c1ccc(F)cc1)cn2CC(=O)Nc1ccc(F)cc1,8,0,-180,5,-13,i,-8,-10,
Cc1ccc(C(=O)NCCSC(C)(C)C)cc1,-1,0,/,-5,-7,i,321*,-6,
C#CC(C)(C)NC(=O)c1cnc(-c2ccccc2)nc1-c1ccccc1,7,2,-6,-4,-16,i,/,-15,

# Overlap with the part before: two compounds, followed by the next part.
SMILES,MT1-MMP act inh,MT1-MMP act inh RFP,Env fusion inh,PABP FP inh,CSC inhib,Rce1 inh,Yeast UUG start,eIF4H FP inh,others
Cc1ccc(C(=O)NCCSC(C)(C)C)cc1,-1,0,/,-5,-7,i,321*,-6,
C#CC(C)(C)NC(=O)c1cnc(-c2ccccc2)nc1-c1ccccc1,7,2,-6,-4,-16,i,/,-15,
O=[N+]([O-])c1cc([N+](=O)[O-])c2cccnc2c1O,/,/,-5,5,2,i,/,21,
CCN(CC)c1ccc2ccc(=O)oc2c1,0,0,-1,3,-2,i,/,8,
Cc1ccc(OCCC(=O)NNC(=O)c2ccc(Br)cc2)cc1,0,4,4,/,-10,/,-6,/,
O=C(NCCc1ccccc1F)C1CCC(=O)N(CCCN2CCCC2=O)C1 (stereo unspecified),-1,-2,0,6,5,i,-6,2,
CCOC(=O)CCCCCC(=O)Nc1ccc2c(c1)C(=O)N([C@@H](C)CO)C[C@H](C)[C@H](CN(C)C(=O)Nc1ccc(C(F)(F)F)cc1)OCCCC[C@H](C)O2,4,5,-34,/,/,/,0,/,
CC(C)Oc1ccc(S(=O)(=O)N2CCOCC2)cc1NC(=O)Cc1ccsc1,-1,-1,/,/,54,/,-19,/,
Clc1nc(-c2ccccn2)nc2scc(-c3ccccc3)c12,-6,-9,-330,19,0,i,-26,6,
Fc1cccc(CN2CCSCC2)c1,-3,1,3,25,-20,i,-15,9,
CCOC(=O)c1c(NC(=O)COC(=O)CNC(=O)c2ccc(Cl)cc2Cl)sc(C(=O)N(C)C)c1C,3,5,9,/,-14,i,10,/,
COc1ccc(-c2cc(-c3ccc(N)cc3)nc(N)c2C#N)cc1OC,2,-6,23,7,0,i,/,-5,
C/C(=N\N(c1ccccc1)c1ccccc1)c1ccc(O)cc1,1,1,-3,-1,40,i,-4,-7,
CC(C)(CNC(=O)c1ccccc1NS(C)(=O)=O)N1CCCCC1,0,-4,11,9,/,i,-15,-3,
COCCNC(=S)N(CCO)Cc1cc2cc3c(cc2[nH]c1=O)OCCO3,-1,5,-15,-6,-5,i,25,6,
Cc1ccc2nc(/C=C/c3cccc(F)c3)ccc2c1,-2,-5,-118,0,16,i,/,-8,
CCCc1nnc(NC(=O)CCC(=O)NCc2ccccc2Cl)s1,-4,6,4,0,-5,i,-8,-2,
O=C(Nc1ccc(Br)cn1)c1ccc2nccnc2c1,-2,-6,/,/,9,i,/,/,
O=C(Nc1ccc(S(=O)(=O)N2CCCC2)cc1)c1ccc([N+](=O)[O-])cc1,0,-9,-13,-4,-5,/,-15,0,
Cc1csc(NC(=O)C2CCN(S(=O)(=O)c3ccccc3F)CC2)n1,-5,-17,-5,-5,/,i,/,4,
CCCN(CCC)CCCNC(=O)C1CCN(S(=O)(=O)c2cccc3nsnc23)CC1,1,5,-3,-6,-16,i,-12,-1,
O=C(CSc1nnc(CNC(=O)c2cccs2)o1)Nc1ccc2c(c1)OCO2,0,3,-11,-7,-13,i,-10,1,
CCCCN(CC)CCCNC(=S)Nc1ccc2nc(N3CCN(C)CC3)cc(C)c2c1,5,2,-9,9,24,i,-21,-5,
Cn1c(=O)c(NC2CCCCC2)c2c3c(cccc31)C(=O)c1ccccc1-2,-147,-3,4,?,/,/,/,?,
COC(=O)c1ccccc1NS(=O)(=O)c1cn(C)c(=O)n(C)c1=O,1,3,-112,3,-17,i,-9,1,
O=C(O)c1ccc(N/N=C2/CCSc3ccc(F)cc32)cc1,-4,3,0,-1,-1,i,-19,5,
CCOc1ccc(-n2nnnc2SCC(=O)Nc2ccc(NC(C)=O)cc2)cc1,1,-1,6,-8,-1,i,-13,-1,
CCOC(=O)C1Nc2ccc(OC(F)(F)F)cc2C2C=CCC12 (stereo unspecified),6,5,-11,/,30,i,-8,/,
CCCn1c(=O)c2ccccc2n2c(SCC(N)=O)nnc12,0,0,-6,0,-9,i,-3,-3,
COc1ccc(OC)c(/C=N/n2c(-c3n[nH]c4c3CCC4)n[nH]c2=S)c1,2,1,8,6,-8,i,-24,-2,
Cc1nc(-c2ccc(C(=O)NCCO)cc2)cs1,5,-10,-14,-3,0,i,-29,1,
O=c1cc(O)n(-c2ccc(F)cc2)c(=S)[nH]1,-4,5,/,10,11,i,/,-8,
O=C(CSc1nnc2ccccn12)NNC(=O)c1ccccc1,-5,3,13,1,-3,i,/,12,
CC1CCc2nn(CC(=O)NC3CCCC3)cc2C1 (stereo unspecified),4,4,-17,-2,0,i,-14,-2,
CCOc1ccc(C(=S)N2CCOCC2)cc1,-2,3,/,1,-13,i,-22,-8,
Cc1nnc(NC(=O)c2c(-c3ccccc3)noc2C)s1,6,4,/,-1,-2,i,-7,-5,
Cn1c(SCC(=O)Nc2ccc(NC(=O)c3cccs3)cc2)nnc1-c1ccncc1,-1,-2,-23,-9,-5,i,-20,-3,
COc1ccc(CCC(=O)NCc2cn3ccc(C)cc3n2)cc1,4,9,15,-5,0,i,-28,4,
O=S(=O)(NC1CCc2ccccc21)c1ccc(S(=O)(=O)N2CCCC2)cc1 (stereo unspecified),-2,-2,/,-9,4,i,/,-4,
Cc1ccc(C(=O)Nc2cccc(S(=O)(=O)N3CCOCC3)c2)cc1[N+](=O)[O-],4,-3,8,3,-3,/,-13,-5,
COCc1cc(C)nc(SCC(=O)Nc2cc3c(cc2C#N)OCO3)c1C#N,1,-6,/,-11,/,i,-12,-15,
COc1ccc(OC)c(CNC(=O)c2nn(C)c3c2CS(=O)(=O)c2ccccc2-3)c1,-1,0,-12,-2,-12,i,13,-10,
CCCN(CCC)S(=O)(=O)c1ccc(NC(=O)COc2ccccc2)cc1,4,-1,12,-5,/,i,/,5,
O=CNc1ccc2c(c1)Cc1cc([N+](=O)[O-])ccc1-2,-46,-9,75*,/,/,/,-16,/,
Cc1cc(S(=O)(=O)N2CCCC2)ccc1OCC(=O)NCc1ccco1,-5,-2,/,13,3,i,-8,10,
COc1cccc(-c2ncc3ccccc3c2COC(=O)c2ccc(C(F)(F)F)cc2)c1,0,-5,10,/,8,/,-13,/,
O=C(NC1CCCCC1)N1CCN(c2ncccn2)CC1,-1,3,10,-4,-7,i,-6,-7,
Cc1cccc(C(=O)NC(C(=O)Nc2ccc(S(=O)(=O)Nc3nccs3)cc2)C(C)C)c1 (stereo unspecified),1,3,-5,/,/,/,-12,/,
Cc1cccc(OCC(=O)N/N=C/c2ccc3c(c2)OCO3)c1,-2,5,-9,0,-2,i,/,9,
CCOC(=O)C(C(=O)Nc1ccccc1C)C1CCCCC1 (stereo unspecified),0,6,/,7,-10,i,2,0,
CCOC(=O)C1CCCN(CCCc2ccccc2)C1 (stereo unspecified),3&3,9&0,/,10&-6,1&8,i,24&-8,-4&-2,
Cc1cccc(OC(=O)NCCOC(=O)N(O)c2ccc(Cl)cc2)c1,5,-3,/,1,4,i,-10,-5,
Cc1ccc(C(=O)NNC(=O)c2n[nH]c(=O)c3ccccc23)cc1C,-1,5,-13,/,/,/,-12,/,
CCCCN1CC[C@H]2C=CC[C@@H](C(=O)Nc3ccc(OC)cc3)[C@H]2C1=O,2,4,2,/,-17,i,-3,/,
Cc1ccc(NS(=O)(=O)c2ccc3c(c2)CCC(=O)N3)cc1C,2&-4,-7&-2,6&13,-9,/,i,-12,-9,
CCOc1ccc(S(=O)(=O)Nc2ccccc2SC)c2cccnc12,-1,-1,27,-7,8,i,-11,4,
CCOc1ccc(N(C(=O)Cn2nnc3ccccc32)C(C(=O)NC(C)(C)CC)c2cccn2C)cc1 (stereo unspecified),-5,-7,/,4,/,i,-10,-9,
CC(C)NC(=O)C(=O)NCc1ccccn1,-6,-3,-3,1,-4,i,/,-4,
Cc1nn(Cc2ccccc2)c(Cl)c1/C=C1\NC(=S)NC1=O,2,-4,17,?,-11,i,-7,-16,
CSc1cccc(NC(=O)CCCNC(=O)c2ccc(Cl)cc2)c1,1,2,37,14,/,i,12,-1,
O=[N+]([O-])c1ccc(N/N=C\c2ccccc2OCc2ccccc2)cc1,-23,-1,3,74*,/,i,/,23*,eIF4H FP inh retest=87*;PABP FP inh retest=84*
CCOC(=O)NC(=O)c1cn(CCN(C)C)c(=O)[nH]c1=O,-3,1,25,2,/,i,/,-6,
# Next section
SMILES,MT1-MMP act inh,MT1-MMP act inh RFP,Env fusion inh,PABP FP inh,CSC inhib,Rce1 inh,Yeast UUG start,eIF4H FP inh,others
Cc1ccc(Oc2ccc(C(=O)NC3CCSC3=O)cn2)cc1 (stereo unspecified),0,2,/,1,-5,i,-7,0,
C(=Cc1cnnc2ccccc12)c1ccccc1,-3,-2,-65,/,/,/,1,/,
COc1cc(OC)cc(OCC(O)Cn2cnc3cc(C)c(C)cc32)c1 (stereo unspecified),0,-12,-31,0,0,i,-17,-4,
Cc1nonc1NC(=O)c1oc2ccc(F)cc2c1C,-2,0,-14,0,-20,i,-12,-7,
Cc1cccc(N2CCN(S(=O)(=O)c3ccc4c(c3)CC(C)N4C(=O)C3CC3)CC2)c1C (stereo unspecified),-2,-12,23,-6,-7,i,-16,4,
Cc1cc(NCc2cccnc2)no1,6,0,14,13,-17,i,0,10,
CC1=CC(c2ccccc2)=Nc2ccc(C)cc2N1,-5,-5,-81,0,2,i,/,4,
CC(=O)Nc1ccc(CN(C)c2c(C)nc3ccc(C(=O)N4CCN(C(C)=O)CC4)cn23)cc1,-1,4,0,/,/,/,-19,/,
Clc1ccccc1-c1nnc(CNC2CC2)o1,-2,4,10,-14,4,i,/,4,
Cc1cccc2c(-c3ccccc3)cc(=O)[nH]c12,-2,-4,-70,-6,-3,i,-12,-5,
Clc1ccc(-c2ccnc3nc(N4CCOCC4)nn23)c(Cl)c1,-13,-5,5,/,/,/,-10,/,
